# Bioassay records deposited in PubChem by National Center for Advancing Translational Sciences (NCATS).
# PINK1 expr mod: A Quantitative High throughput Screen to Identify Chemical Modulators of PINK1 Expression; Potency, µM (series often up to 76.6 µM), for inactives: at the top dose activation (PINK1 increase), hits mostly activators; PINK1 immunofluorescence, high-content cytometry, 24 h; AID 624263, 2012; hit rate 0.2% among 410,000; active = well fitted activation curve with a large enough effect; inconclusive = small, poorly fitted or top-dose-only effect; inactive = flat fitted curve, though single readings scatter; cell line not stated here;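 further: potency means the concentration at half of the fitted maximal effect; % of control where 0% means no effect; nearly all actives have a fitted effect of over 65% in size; a mitochondrial uncoupler was the plate control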
#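 Fluorescence from anti-PINK1 antibody, together with nuclear and cell stains, was scanned on a laser-scanning cytometer. Before staining, stable-line cells were incubated 24 hours with compounds at 5 concentrations; primary antibody 12 h at 10 degrees C.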
# Menin MLL FP FL: qHTS Assay for Inhibitors Targeting the Menin-MLL Interaction in MLL Related Leukemias: Competition With Fluorescein Labeled MLL-derived Peptide | FP activity change, % at 61.4 µM | 290,000 tested, under 10 active | Fluorescence polarization, fluorescein-MLL peptide displacement from menin; inconclusive = falling polarisation curve, or a change in total fluorescence; inactive = total fluorescence flat and polarisation flat or rising; no compound was filed as active; the % refers to the polarisation; negative = inhibition;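 further: % of control where 0% means no effect; inhibitors lower the polarisation; unlabelled MLL peptide was the positive control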
# ClpP mod: qHTS Assay for Activators of ClpP; ATP-dependent Clp protease proteolytic subunit (Bacillus subtilis (strain 168)), P80244; purified B. subtilis ClpP, FRET peptide cleavage, 20 min; Potency, µM (top dose mostly 57.5 µM), inactives show at the top dose activity change, negative = active; hit rate 1.9% among 340,000; AID 651965, 2013; active = well fitted falling curve with a large enough effect; inconclusive = small, poorly fitted or top-dose-only effect; inactive = no such curve, though single readings can be large or run the other way; further: potency means the concentration at half of the fitted maximal effect; the source files actives as falling curves though it sought activators and does not explain the sign; nearly all actives have a fitted effect of over 65% in size; many hits overshoot -100%
# Target sequence (P80244 whole entry, looked up): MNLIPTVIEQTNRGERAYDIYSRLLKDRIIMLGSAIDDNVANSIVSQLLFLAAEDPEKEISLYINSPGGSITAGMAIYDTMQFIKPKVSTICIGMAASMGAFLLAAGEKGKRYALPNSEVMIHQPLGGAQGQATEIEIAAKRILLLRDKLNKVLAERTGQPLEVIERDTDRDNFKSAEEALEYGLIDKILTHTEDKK
#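 Buffer: 100 mM Tris/HCl pH8, 100 mM KCl, 0.05% low protease BSA, 2.5% glycerol, 0.01% Tween-20. ClpP 10 microg/mL final; 20 min RT; delta FRET normalized to ADEP and DMSO controls.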
# gsp antag: qHTS for Antagonists of gsp, the Etiologic Mutation Responsible for Fibrous Dysplasia/McCune-Albright Syndrome: qHTS; gsp-mutant cells, cAMP HTRF, 30 min; control for the full effect not named in the record; Potency, µM (titrated, usually from 76.9 µM), without a hit: at the highest dose activity change, negative = inhibition, most hits filed as inhibitors; hit rate 0.4% among 340,000; AID 624288, 2012; active = falling curve of any shape with a large fitted effect; inconclusive = falling curve, mostly with a smaller effect; inactive = flat or rising curve; cell line not stated here;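 further: intracellular cAMP measured with PDE inhibitor Ro 20-1724 present during compound exposure; potency means the concentration at half of the fitted maximal effect; on the % scale 0 is the no-effect control and ±100 the full control effect; nearly all actives have a fitted effect of over 65% in size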
#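 HTRF cAMP measurement after 30 min RT detection following 30 min, 37C compound treatment alongside […] (added as 300 uM solution) in G418-selected cells seeded at 2000/well and grown 16–24 h.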
# gsp agonist: qHTS for Agonist of gsp, the Etiologic Mutation Responsible for Fibrous Dysplasia/McCune-Albright Syndrome: qHTS. gsp mutant cells, cAMP HTRF, 30 min; control for the full effect not named in the record. hit rate 0.13% among 340,000. AID 624287, 2012. Potency, µM (titrated, usually from 76.9 µM), for the others: at the top dose activation (cAMP increase), usual class: activators; active = well fitted activation curve with a large enough effect; inconclusive = small, poorly fitted or top-dose-only effect, or another doubt; inactive = no such curve, though single readings can be large or run the other way; cell line not stated here;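 further: phosphodiesterase inhibitor Ro 20-1724 added with compounds to block cAMP breakdown; potency means the concentration at half of the fitted maximal effect; nearly all actives have a fitted effect of over 60% in size; about a fifth of the inactives were tested at one dose only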
#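 Cells in DMEM/10% FBS with G418 were pretreated with compounds in DMSO plus […] (300 uM stock) for 30 min at 37C. cAMP was measured by HTRF (cAMP-d2 plus anti-cAMP antibody-K) after 30 min at room temperature.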
# D2 agonist: Beta-Arrestin HTS for Positive Allosteric Modulators of the Human D2 Dopamine Receptor: Agonists. hit rate 0.084% among 360,000. activation, % (test concentration not listed). AID 624465, 2012. D(2) dopamine receptor (Homo sapiens), P14416. DiscoveRx PathHunter D2 beta-arrestin, luminescence, 90 min; 100% = 57 uM dopamine signal; in the data active = activation above about 40%; inconclusive = about 15% to 40%; inactive = below about 15%; further: compound concentration not given in the record; the text of the record calls up to 30% inactive
# Target sequence (P14416 whole entry, looked up): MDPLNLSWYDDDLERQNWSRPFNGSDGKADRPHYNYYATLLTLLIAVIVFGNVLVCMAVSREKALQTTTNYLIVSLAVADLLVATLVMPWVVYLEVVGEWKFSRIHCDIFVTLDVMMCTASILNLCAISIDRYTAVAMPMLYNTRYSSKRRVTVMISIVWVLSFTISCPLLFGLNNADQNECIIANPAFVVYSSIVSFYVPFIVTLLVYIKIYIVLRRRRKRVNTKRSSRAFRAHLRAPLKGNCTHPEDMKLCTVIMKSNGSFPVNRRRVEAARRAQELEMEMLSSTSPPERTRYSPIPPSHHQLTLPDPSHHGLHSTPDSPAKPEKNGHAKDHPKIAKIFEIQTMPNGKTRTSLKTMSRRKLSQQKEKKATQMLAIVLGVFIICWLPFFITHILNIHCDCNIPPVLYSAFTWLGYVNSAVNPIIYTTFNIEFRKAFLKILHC
#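 DiscoveRx PathHunter D2 beta-arrestin cells (2,100/well) attached overnight, then compound-stimulated 90 min at 37 C in HBSS/10 mM HEPES/0.1% Tween-20 buffer; beta-galactosidase complementation read by luminescence after 1 h at ambient temperature. Dopamine 57 uM final (EC100) as control.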
# Sfp inh: qHTS Assay for Inhibitors of Bacillus subtilis Sfp phosphopantetheinyl transferase (PPTase). hit rate 3.5% among 310,000. Potency, µM, for inactives: max response, negative = inhibition, actives largely listed as inhibitors. 4'-phosphopantetheinyl transferase ffp (Bacillus subtilis), Q9F4F7. Biochemical Sfp PPTase activity, qHTS; active means well fitted inhibition curve with a large enough effect; inconclusive means small, poorly fitted or top-dose-only effect, or another doubt; inactive means no such curve, though single readings can be large or run the other way;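 further: the enzyme is Sfp with the accession as filed and its product quenches rhodamine fluorescence; potency means the concentration at half of the fitted maximal effect; 0% = enzyme reaction without inhibitor and -100% = no enzyme wells; top concentration of the series not given in the record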
#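 With Hepes-Na pH 7.6 buffer containing 10 mM MgCl2, Sfp (15 nM) modified BHQ-2-YbbR (12.5 uM) using rhodamine-CoA (5 uM). Two reads 30 minutes apart at 525/598 nm yielded each well's rate.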
# The depositor's hits bear a star; u = inconclusive; x = no result given; & = joins results of further samples; [ ] = remark or other dose.
Structure | D2 agonist | gsp agonist | gsp antag | Menin MLL FP FL | Sfp inh | ClpP mod | PINK1 expr mod
CC(C)CN1CCNC(=O)C1CC(=O)NCCc1cnn(-c2ccccc2)c1 (stereo unspecified) | -0.8 | -4%[15.4 µM] | -7% | 1.7 | 12% | x | -0.1%
Cc1cc(Nc2nc3ccccc3nc2Cl)n(-c2ccccc2)n1 | 1.6 | -31% | -4% | 2.8 | 12% | -1.6% | -2.9%[38.3 µM]
CCc1nc2ccc(C(=O)NCCOc3ccc(OC)cc3)cn2c1N(CC)Cc1cccc(Br)c1 | -3.2 | x | x | x | x | -18% | -0.4%
Cc1ccc(-n2c(C)cc(C(=O)NS(=O)(=O)c3ccc(C)cc3)c2C)cc1 | -1.5 | -33% | -1% | 2.0 | -3% | x | -1.0%
c1ccc(COc2ncnc3c2ncn3CCCNCc2ccccn2)cc1 | -4.9 | x | 9% | x | x | -2.0% | -1.0%
COc1ccc(-c2[nH]n(-c3ccc([N+](=O)[O-])cc3)c(=O)c2C=NCc2ccc(F)cc2)cc1 | -3.6 | 15% | -1% | 4.1 | -21% | -0.8% | 9.6%
COc1ccc(OCC(=O)Nc2nc3c(s2)CCCC3)cc1 | 1.7 | 0% | -6% | x | 3% | 3.3% | 1.0%
c1csc(-c2nnc(N3CCOCC3)c3ccccc23)c1 | 1.7 | -1%[15.4 µM] | -14% | 2.2 | 10% | x | 1.5%
COc1ccc(C(=O)NNC(=O)c2ccccc2[N+](=O)[O-])cc1 | 1.4 | 0% | 8% | -1.9 | 19% | 0.0% | -0.5%
COC(=O)C1=C(C)N(CCCC(=O)O)C(=O)NC1c1cccc2ccccc12 (stereo unspecified) | -2.9 | -31%[inhibitor] | -9% | x | x | 1.6% | 1.7%
O=C(c1cccc(C(F)(F)F)c1)C1CCCN(C(=O)CCn2cnnn2)C1 (stereo unspecified) | -1.2 | 26%[15.4 µM] | 5% | 0.5 | 11% | x | 1.5%
Cn1cc(Cl)c(C(=O)Nc2cnn(Cc3ccc(F)cc3)c2)n1 | 0.4 | 19% | 8% | -1.5 | 24% | -8.1% | 0.5%
O=[N+]([O-])c1cc(-c2nnc(Nc3ccc(O)cc3)c3ccccc23)ccc1N1CCOCC1 | 6.0 | -1%[15.4 µM] | u | -0.6 | -10% | x | 0.5%
CCOC(=O)COc1ccccc1-c1ccno1 | -3.3 | -3% | 2% | 2.9 | 3% | -0.9% | -21%[38.3 µM]
O=C(Nc1ccccc1C(=O)N/N=C/c1ccco1)c1ccc(F)cc1 | 1.7 | -19% | u | 4.5 | -20% | -18% | 0.0%

# Some of the entries so far, with two lines to a compound.
# Below each compound – D2 agonist	gsp agonist	gsp antag	Menin MLL FP FL	Sfp inh	ClpP mod	PINK1 expr mod
CC(C)CN1CCNC(=O)C1CC(=O)NCCc1cnn(-c2ccccc2)c1 (stereo unspecified)
  -0.8	-4%[15.4 µM]	-7%	1.7	12%	x	-0.1%
c1ccc(COc2ncnc3c2ncn3CCCNCc2ccccn2)cc1
  -4.9	x	9%	x	x	-2.0%	-1.0%
COC(=O)C1=C(C)N(CCCC(=O)O)C(=O)NC1c1cccc2ccccc12 (stereo unspecified)
  -2.9	-31%[inhibitor]	-9%	x	x	1.6%	1.7%
COc1ccc(C(=O)NNC(=O)c2ccccc2[N+](=O)[O-])cc1
  1.4	0%	8%	-1.9	19%	0.0%	-0.5%

# Next records:
Structure | D2 agonist | gsp agonist | gsp antag | Menin MLL FP FL | Sfp inh | ClpP mod | PINK1 expr mod
CCC(C(=O)N1CCN(S(=O)(=O)c2ccc(F)cc2)CC1)c1ccccc1 (stereo unspecified) | 0.9 | 12% | -8% | x | x | -4.2% | 2.7%
CCN(CC(=O)Nc1ccc(OC)cc1)C(=O)c1cc([N+](=O)[O-])ccc1N1CCOCC1 | -5.2 | 25% | 5% | x | x | 1.1% | 1.0%
COCC(=O)/C=C1\Sc2ccccc2N1C | -1.0 | -4% | 3% | -4.2 | -20% | -1.6% | -1.6%[38.3 µM]
CCOC(=O)CNC(=O)N1c2ccccc2Sc2ccccc21 | -1.0 | -2% | 4% | 0.3 | 18% | 1.8% | -0.6%
Cc1cc(C)nc(N2CCCC(C(=O)NCCc3cccc(F)c3)C2)n1 (stereo unspecified) | 3.4 | 25% | 12% | -1.1 | 17% | -12% | -0.4%[38.3 µM]
CC(=O)c1ccc(-n2c(CCC(=O)O)ccc2-c2cccs2)cc1 | -0.9 | -29% | -22% | 17 | 20µM* | -1.4%&-0.5% | 0.2%
CCCn1c(=N)c(C(=O)NCc2ccc3c(c2)OCO3)cc2c(=O)n3cccc(C)c3nc21 | 0.6 | -50%[inhibitor] | 6% | 6.3 | -3% | -5.0% | 1.1%
COc1ccc(-c2cc(C3CCN(Cc4cccc(C(F)(F)F)c4)CC3)[nH]n2)cc1 | 3.9 | 52% | 6% | -2.5 | 11% | x | -3.5%
O=C(NCC1CCCO1)C(=O)N/N=C/c1c(F)cccc1Cl (stereo unspecified) | 4.0 | 0% | 1% | x | 21% | x | 4.5%
OC(CNc1nc2ccccc2s1)c1ccccc1 (stereo unspecified) | -6.7 | 6% | 8% | 1.0 | 5% | 1.1% | -2.1%
CC(C)(C)NC(=O)CN(Cc1cccnc1)C(=O)c1csnn1 | -3.3 | -19% | 3% | 7.2 | 5% | 0.2% | x
O=C(NCc1nc(-c2ccc(C(F)(F)F)cc2)no1)Nc1cc(Cl)cc(Cl)c1 | -3.9 | 3% | u | 2.0 | 25% | -2.6% | u
Cc1cc(=O)[nH]c(NN=C2C3CC4CC(C3)CC2C4)n1 | -6.3 | 3% | 9% | 0.9 | 45µM* | 0.6% | 0.3%
COc1ccc(CC2(CO)CCN(Cc3cc4ccccc4o3)CC2)cc1 | 62* | 5% | 4% | 0.3 | 0% | x | 1.6%
COCCn1c(SCC(=O)N2CCCC2)nc2c([nH]c3ccccc32)c1=O | -4.2 | u | 4% | x | 10% | -4.9% | 4.7%
CCN(CC)C(=O)c1[nH]cnc1C(=O)NCCCCCNC(=O)OC(C)(C)C | -0.1 | x | 0% | x | x | -3.2% | 0.5%
CCOC(CNC(=O)c1[nH]c(C(F)(F)F)nc1-c1ccccc1)OCC | -1.5 | x | x | x | x | -2.5% | 0.5%
Cc1cc(C(=O)COc2ccccc2[N+](=O)[O-])c(C)n1C1CC1 | 0.1 | 1% | -4% | -0.4 | 7% | x | 4.3%
Cc1ccccc1Nc1ccc([N+](=O)[O-])cn1 | 1.8 | -15%[15.4 µM] | 1% | -7.2 | 13% | -1.7% | -0.2%
CC(C)CSc1nnc2[nH]c(=O)cc(N)n12 | -3.2 | -16% | -7% | 4.5 | 16% | -1.6% | -0.4%
O=C(O)/C=C/c1cn(Cc2ccccc2)nc1-c1ccccc1 | -6.1 | -5% | -8% | 3.5 | 11% | -4.6% | -1.0%
O=C(Nc1ccc(Br)cn1)c1ccc2ccccc2c1 | -1.8 | 10% | -7% | -2.9 | 9% | -7.3% | 15%
O=C(CSc1nnc(COc2ccccc2)n1-c1ccccc1)c1cccs1 | -3.2 | -48%[inhibitor] | -3% | 2.5 | 2% | -1.4% | -1.4%
O=C(N1CCOCC1)N1CCOCC1 | -2.3 | 5% | 0% | 4.3 | -1% | 4.9% | 0.3%
CN(C)/C=C/C(=O)c1ccc(Cl)c([N+](=O)[O-])c1 | -6.0 | -14%[15.4 µM] | -16% | -3.6 | 20% | x | -1.0%
O=C(O)/C(=C\c1ccc(-c2ccccc2[N+](=O)[O-])o1)c1ccccc1 | 4.0 | -25% | -18% | 2.1 | -40% | 1.2% | -0.4%
COC(=O)C1=C(C)N(CC(C)C)C(=O)C1 | 0.7 | -7% | 2% | -0.9 | -10% | -2.3% | 0.7%[38.3 µM]
c1ccc2c(c1)OCC(c1nnc3n1-c1ccccc1SC3)O2 (stereo unspecified) | -3.2 | 0% | -9% | 0.7 | 7% | 0.9% | -2.2%
CCN(CC(=O)Nc1ccccc1C(F)(F)F)C(=O)c1ccccc1OCc1ccc(F)cc1 | -4.3 | -29% | -6% | x | x | -0.9% | -2.5%
CC(=O)c1sc(N/N=C\c2c(O)ccc3ccccc23)nc1C | -6.2 | 12% | -6% | x | x | x | 11%
CCCCCOC(=O)c1ccc(N2C(=O)C3C4C=CC(C4)C3C2=O)cc1 (stereo unspecified) | 3.9 | 10% | -18% | 4.1 | -20% | 0.5% | 6.4%[38.3 µM]
COc1cnc(-c2cccc(C(F)(F)F)c2)nc1OC | 5.7 | u | -1% | -3.5 | -2% | x | 4.7%
CNc1cnc(-c2ccc(C(=O)N3CCOCC3)cc2)cn1 | -4.5 | x | x | x | x | 4.5% | 9.1%
CCCC(=O)Nc1cc(C)c(NC(=O)c2ccccn2)cn1 | 0.3 | u | 4% | 5.1 | u | -3.3% | -0.4%
C=CCNC(=S)NNC(=O)c1cccn(Cc2cccc(Cl)c2)c1=O | -2.0 | 5% | 6% | 2.5 | 8% | 104% | 59%[38.3 µM]
CCc1ccc2cc(C)cc(C)c2n1 | -3.2 | x | x | x | x | -4.8% | 1.0%
Cc1cc(NS(=O)(=O)c2ccccc2)c(C)c(Cl)c1O | 10 | -7% | 2% | -1.0 | -9% | -0.9% | 0.1%
